From PubChem BioAssay
H5N1 antiviral: MDCK cell protection from H5N1 avian flu. cytopathic effect, luminescence, 72 h; active compounds read high; no value below 0 was filed and about half of the inactive calls have no number; reference of the scale not given here. inhibition, % at 50 µM. actives 0.07% (n = 96,000). AID 740, 2007; in the data active = inhibition above about 25%
Numbers without * were called inactive; i = inactive. This is a subset; count on the stated rates, not on these rows.

SMILES	H5N1 antiviral
COc1cc2c(C(=O)N3CCN(c4cccc(Cl)c4)CC3)cn(CC(C)C)c(=O)c2cc1OC	i
COc1ccc(-c2cc(C(=O)NC3CCCC3)no2)cc1OC	0.2
O=C(O)c1c(-c2ccccc2)c2oc3ccccc3c2[nH]c1=O	i
CCCCCOc1ccc(NC(=O)C(=O)NCCCn2ccnc2)cc1	0.3
CC(NC(=O)Cn1cc2c(n1)CCCCC2)c1ccccc1 (configuration not stated)	i
CCOc1ccccc1C(=O)NCCCCCC(=O)O	1.0
Cc1ccc(/C=C/C(=O)Nc2cc(C)on2)cc1	0.1
CCCC1=C(C(=O)OCC)C(c2ccncc2)n2ncnc2N1 (configuration not stated)	0.3
O=C(CSc1nc2[nH]ncc2c(=O)n1-c1ccccc1)N1CCCc2ccccc21	1.8
O=S(=O)(c1ccc(Sc2nnc3ccccn23)nc1)N1CCOCC1	4.1
CCOc1ccc(C(=O)NCC(C)CN(C)C)cc1OCC (configuration not stated)	0.8
O=C(NC1=NCCS1)NC12CC3CC(CC(C3)C1)C2	i
Cc1cnc(C(=O)Nc2cccc3cccnc23)cn1	10
C=CCn1c(COc2ccc(CC)cc2)nnc1SC/C(O)=C(\C#N)c1nc2ccccc2[nH]1	0.8
CCc1c(C)nc(SCC(=O)Nc2ccc(Br)cc2)[nH]c1=O	i
Cc1ccc(S(=O)(=O)N2CCN(C(=O)CSc3nc4ccccc4o3)C2)cc1	i
CCOCCOC(=O)C1=C(C)N(C)C(=O)NC1c1ccccc1F (configuration not stated)	0.1
COC(=O)c1scc(C)c1NC(=O)C1CCCCC1	2.6
CCn1ncc([N+](=O)[O-])c1C(=O)N1CCCC1	i
COc1cccc(OC)c1Oc1ccc(C(F)(F)F)cn1	0.6
CCOC(=O)Cc1csc(NC(=O)c2cccc(OC)c2)n1	0.4
CCCC1C(c2ccc(OC)cc2)C(C#N)(C#N)C2(C#N)CC1(N)NC2=O (configuration not stated)	i
Cc1ccc(C(C(=O)NC2CCCC2)N2CCCCC2)cc1 (configuration not stated)	i
CCOc1ccc(CN2CCN(C(=O)c3ccccc3)CC2)cc1	0.4
CCS(=O)(=O)N1CCCC(C(=O)NCc2cccnc2)C1 (configuration not stated)	1.1

Among those listed so far, 13 contain a carbonyl joined to an NH by a bond outside any ring.
SMILES	H5N1 antiviral
COc1ccc(-c2cc(C(=O)NC3CCCC3)no2)cc1OC	0.2
CCCCCOc1ccc(NC(=O)C(=O)NCCCn2ccnc2)cc1	0.3
CC(NC(=O)Cn1cc2c(n1)CCCCC2)c1ccccc1 (configuration not stated)	i
CCOc1ccccc1C(=O)NCCCCCC(=O)O	1.0
Cc1ccc(/C=C/C(=O)Nc2cc(C)on2)cc1	0.1
CCOc1ccc(C(=O)NCC(C)CN(C)C)cc1OCC (configuration not stated)	0.8
O=C(NC1=NCCS1)NC12CC3CC(CC(C3)C1)C2	i
Cc1cnc(C(=O)Nc2cccc3cccnc23)cn1	10
CCc1c(C)nc(SCC(=O)Nc2ccc(Br)cc2)[nH]c1=O	i
COC(=O)c1scc(C)c1NC(=O)C1CCCCC1	2.6
CCOC(=O)Cc1csc(NC(=O)c2cccc(OC)c2)n1	0.4
Cc1ccc(C(C(=O)NC2CCCC2)N2CCCCC2)cc1 (configuration not stated)	i
CCS(=O)(=O)N1CCCC(C(=O)NCc2cccnc2)C1 (configuration not stated)	1.1

An excerpt of these results, with bars between the fields.
smiles | H5N1 antiviral
COc1cccc(OC)c1Oc1ccc(C(F)(F)F)cn1 | 0.6
CC(NC(=O)Cn1cc2c(n1)CCCCC2)c1ccccc1 (configuration not stated) | i

(further entries)
SMILES	H5N1 antiviral
CCOc1cc(C(=O)N(C)Cc2cc3cc(OC)ccc3[nH]c2=O)cc(OCC)c1OCC	i
O=C(O)C1CCN(S(=O)(=O)c2ccc(Oc3ccccc3)cc2)CC1	2.3
O=C1CC(C(=O)N(c2cccc(F)c2)C(C(=O)NC2CCCC2)c2ccccn2)CS1 (configuration not stated)	1.2
CCc1nnc(NC(=O)c2c(O)c3c([nH]c2=O)CCCC3)s1	i
Cc1cc(NCCN2CCOCC2)n2c(nc3ccccc32)c1C#N	2.8
Fc1ccc2[nH]c3c(NCCN4CCOCC4)ncnc3c2c1	2.7
CCc1cc2c(=O)c(-c3nc4ccccc4n3C)coc2c(CN2CCN(C)CC2)c1O	0.3
O=C1COc2ccc(NC(=O)N3CCN(c4ccc(F)cc4)CC3)cc2N1	0.1
CCCCCn1c(CN2CCN(C)CC2)nc2c1c(=O)n(C)c(=O)n2C	1.3
CNC(=O)COc1ccc(-c2nn(C)c(=O)c3ccccc23)cc1	2.3
O=C(Cc1cccs1)N1CCCC(c2nc3c(nnn3Cc3ccccc3Cl)c(=O)[nH]2)C1 (configuration not stated)	2.9
COCCOCC(O)CN1CCN(c2ccc(C)cc2)CC1 (configuration not stated)	i
COc1ccc(/C=C2\CCCC3C2=NN(C(=O)c2scnc2C)C3c2ccc(OC)c(OC)c2)cc1OC (configuration not stated)	i
Cc1cc(C(F)(F)F)nn1Cc1ccc(C(=O)NCc2ccco2)o1	4.3
COc1ccccc1C1(CC(=O)O)CCOC(C(C)C)C1 (configuration not stated)	i
Cc1ccc([N+](=O)[O-])cc1N=Cc1ccc(Br)s1	i
C=CCn1c(CSCc2ccc(Cl)cc2)nnc1SCC(=O)NCc1ccccc1	i
Cc1ccc2sc(-c3ccc(NC(=O)c4cc(-n5cnnc5)ccc4Cl)cc3)nc2c1	1.4
Cc1cc(N=CC2=C(O)CC(C)(C)CC2=O)no1	0.3
CCOc1cc(/C=C\c2[nH]c(=O)[nH]c(=O)c2[N+](=O)[O-])ccc1OC(C)CC (configuration not stated)	0.8
C/C(=C/C(=O)NCc1ccccc1)C(=O)O	i
O=C1OC(c2ccccc2)=C/C1=C/N1CCCCC1	i
Cc1cc(C)nc(SC(C)C(=O)Nc2ccc(S(N)(=O)=O)cc2)n1 (configuration not stated)	0.7
CCOc1ccccc1N(CC(=O)Nc1ccc2c(c1)OCO2)S(C)(=O)=O	i
COc1ccc2c(C)cc(SCC(=O)c3ccc4c(c3)OCO4)nc2c1	2.6

Reprinted at random: four entries already listed.
SMILES	H5N1 antiviral
COCCOCC(O)CN1CCN(c2ccc(C)cc2)CC1 (configuration not stated)	i
Cc1ccc2sc(-c3ccc(NC(=O)c4cc(-n5cnnc5)ccc4Cl)cc3)nc2c1	1.4
CCc1nnc(NC(=O)c2c(O)c3c([nH]c2=O)CCCC3)s1	i
CCCCCn1c(CN2CCN(C)CC2)nc2c1c(=O)n(C)c(=O)n2C	1.3

(listing goes on)
SMILES	H5N1 antiviral
CC1c2[nH]c3ccccc3c2CCN1S(C)(=O)=O (configuration not stated)	2.5
CC(C)CSc1nnc2c(n1)[nH]c1ccccc12	i
COc1ccccc1C(=O)Nc1ccc(N2CCN(Cc3ccccc3)CC2)cc1	i
O=C(c1cccs1)N1CCN(Cc2ccncc2)CC1	i
O=C(COc1ccccc1O)Nc1ccccc1Cl	5.2
CC(=O)Nc1ccc(-c2nnc(SCC(=O)Nc3ccc4c(c3)oc3ccccc34)n2C)cc1	i
O=C1C=C(c2ccccc2)C[C@H](c2cccs2)[C@H]1n1cnc([N+](=O)[O-])c1	2.2
Cc1cc(C(=O)OCC(=O)Nc2ccc(F)cc2F)c(C)o1	i
CCOC(=O)c1cnc2c(C)cccc2c1NCCc1ccc(OC)c(OC)c1	1.3
CC1(C(=O)NC2CCCCCCC2)CCC(=O)N1CCN1CCOCC1 (configuration not stated)	i
COc1ccc(CC(=O)NC2CCN(CC(=O)Nc3ccc4c(c3)OCCO4)CC2)cc1OC	0.8
CC(=O)NC(Cc1ccccc1)C(=O)NC1CCN(C(=O)NC2CCCCC2)CC1 (configuration not stated)	0.5
O=C(NCC1CCCO1)c1coc2nc3ccccc3nc12 (configuration not stated)	0.1
CSc1ccccc1NC(=O)c1cc(CC(C)C)on1	i
Cc1ccc(NC2c3ncccc3C(=O)N2c2ccccc2C)cc1C (configuration not stated)	1.0
Cc1cccc(NC(=O)c2c(C)cc(=O)oc2C)n1	0.3
O=C1Nc2ccccc2C12OC1CCCCC1O2 (configuration not stated)	i
CSCC[C@H](NC(=O)CCNC(C)=O)c1nc2ccccc2[nH]1	0.1
COC(=O)[C@H](CC(C)C)NC(=O)NC1CCCCC1C (some centres not stated)	3.2
CC(NC(=O)C1C2C=CC(C2)C1C(=O)O)c1ccccc1 (configuration not stated)	i
Fc1ccc(C2C3=C(Nc4ncnn42)c2ccccc2OC3c2ccncc2)cc1 (configuration not stated)	0.9
COc1cccc(C2C(C(=O)c3sc(C)nc3C)=C(O)C(=O)N2CCN2CCOCC2)c1 (configuration not stated)	0.5
COc1ccc2cc3cc(C(=O)N4CCN(Cc5ccc6c(c5)OCO6)CC4)oc3nc2c1	0.3
CCCCOc1ccccc1C1CC(=O)NC2=C1C(=O)CCC2 (configuration not stated)	1.6
CCOC1(C(F)(F)F)NC(=O)N(Cc2ccc(OC)cc2)C1=O (configuration not stated)	i

Additional entries.
SMILES	H5N1 antiviral
COc1cc(C2CC(=O)N3CN(c4ccccc4C)CSC3=C2C#N)cc(OC)c1OC (configuration not stated)	1.0
Cc1nc2nc(-c3ccccc3)cc(=O)n2[nH]1	i
C/C(=C\C(=O)Nc1nccs1)c1ccccc1	i
CCOC(=O)c1oc2nc(C(C)C)c3c(c2c1N)CCC3	0.5
Cc1ccc(C(=O)Nc2ccccc2NC(=O)c2ccc(C)o2)o1	i
COc1cccc(CN2C(=O)CN(C3CCCCC3)C(=O)C2c2ccc(F)cc2)c1 (configuration not stated)	1.7
Cc1nc2ccccc2n1CCC(=O)O	0.3
CC(=O)c1cc(CC=C(C)C)c(O)c(CC=C(C)C)c1O	i
CCC(C)NS(=O)(=O)c1ccc(OCC(=O)NCc2cccnc2)cc1 (configuration not stated)	i
OC1(c2ccc3c(c2)OCO3)CCN(Cc2ccccn2)CC1	0.0
O=C(O)c1cc(S(=O)(=O)N2CCOCC2)c(Sc2ccccn2)cc1Sc1ccccn1	1.9
CC1CCN(c2nc3c(c(=O)[nH]c(=O)n3C)n2Cc2ccccc2)CC1	1.0
Cc1ccc2cc(C#N)c(N3CCCN(S(=O)(=O)c4ccccc4)CC3)nc2c1	3.4
O=C1Nc2cc(Cl)c(Cl)cc2N(O)N1c1ccccc1	i
CCOC(=O)c1c(C)nc2sc(C(N)=O)c(N)c2c1-c1ccc(OC)cc1	1.1
C=CCNC(=O)CN(c1ccc(OC)cc1OC)S(C)(=O)=O	0.2
CC(C)NC(=O)CSc1nc2ccccc2n1CC(=O)N1CCc2ccccc21	0.3
CC1CCN(c2oc(-c3ccccc3Cl)nc2C#N)CC1	2.7
CCOc1cc(/C=C\[N+](=O)[O-])ccc1OCC(=O)Nc1ccccc1C	i
O=C(CN1CC(c2ccccc2)CC1=O)OCc1cccc(Br)c1 (configuration not stated)	i
O=[n+]1cc(-c2cccc3ccccc23)n([O-])c2c1CCC2	i
CCOc1ccc(C(C(=O)Nc2ccc(F)cc2)N(C(=O)Cn2nnc3ccccc32)C2CC2)cc1 (configuration not stated)	i
CC(=O)c1nn(-c2cccc(Br)c2)cc1C(=O)c1ccc(C)cc1	i
CC1(c2cc([N+](=O)[O-])cc([N+](=O)[O-])c2)CC(C)(C)N(C(=O)c2ccccc2)c2ccccc21 (configuration not stated)	i
CCC(=O)Nc1ccc2c(c1)C(=O)N(C1CCCCC1)C2=O	0.5

Additional compounds follow.
SMILES	H5N1 antiviral
CC1=NN(C(=O)Cc2ccc(C)cc2)C(O)(c2cccnc2)C1 (configuration not stated)	i
CCc1cc(=O)oc2cc(C)c(CN3CCCCC3)c(O)c12	6.1
CCOc1ccc2nc(SCC(=O)NC3CCS(=O)(=O)C3)[nH]c2c1 (configuration not stated)	1.1
CN(C)c1ccc(C2C3C(=O)N(c4ccc(C(=O)O)cc4)C(=O)C3ON2c2ccccc2)cc1 (configuration not stated)	i
c1ccc(NCn2cncn2)nc1	i
c1ccc2c(c1)CCCN2Cc1nnc2n1CCCCC2	0.7
COc1ccc(C(=O)c2ccc(OC)cc2O)c(O)c1	i
Cn1c(Sc2ccc(C(F)(F)F)cc2[N+](=O)[O-])nnc1-c1ccccc1	0.7
N#Cc1ccccc1NC1=CC(=O)CCC1	i
CCOC(=O)CSc1nc2c([nH]c3ccccc32)c(=O)n1C	0.7
C/C(=N/Oc1nc(C)cc(C)n1)c1ccc(Br)cc1	i
COc1ccc(CC(=O)NC(C)c2nnc(SCCOc3ccc(OC)cc3)n2C)cc1 (configuration not stated)	0.2
O=C(c1cncc(Br)c1)N1CCCc2ccccc21	i
CCCC(=O)Nc1nc(C)c(-c2csc(Nc3ccc(Cl)cc3)n2)s1	i
COc1ccccc1N1CCN(C(=O)Cc2cccs2)CC1	1.7
Cc1cccc(C)c1NC(=O)CSc1nnc(Cn2nnc(-c3ccccc3)n2)n1-c1ccccc1	i
Cn1c(Cc2ccccc2)nnc1SCC(=O)Nc1ccc2c(c1)OCCO2	i
ONC(=Nc1ccc(Cl)cc1)c1ccccc1Cl	0.3
O=C(O)c1c[nH]c2c(C(F)(F)F)cccc2c1=O	i
COc1ccc(-n2c(C)cc(C(=O)Cn3nnc4ccccc4c3=O)c2C)cc1	i
Cc1cc(C(=O)Cn2cncn2)c(C)n1CCc1ccc(F)cc1	0.1
Cc1ccc(-c2ccc(CCC(=O)O)n2NC(=O)c2ccco2)cc1	0.0
COc1ccc(CCNC(=O)CN2CCC(C(N)=O)CC2)cc1	0.2
COc1ccc(NC(=O)c2cc(-c3cccnc3)nc3ccc(C)cc23)cc1OC	1.4
CCCCNC(=O)CCCCCn1c(=O)[nH]c2cc(OC)c(OC)cc2c1=O	i

(continued)
SMILES	H5N1 antiviral
CC(C)C(=O)Nc1ccc(NC(=O)c2cccc(F)c2)cn1	1.1
COCC(=O)Nc1cc(OC)c(Cl)cc1OC	1.4
CCOCCc1c(O)nc(SCC(=O)NCc2ccco2)[nH]c1=O	i
N#CCC1c2ccccc2CCN1C(=O)Nc1ccc(C(F)(F)F)cc1 (configuration not stated)	i
CCOC(=O)N1CCC(N2C(=O)c3ccccc3C2=O)CC1	i
Cc1ccc(Cl)c(OCCCCN(C)Cc2ccccc2)c1	i
O=C(CCCC(=O)NCC1CCCO1)NCC1CCCO1 (configuration not stated)	0.1
COC(=O)c1cc(OC)c(OC)cc1NC(=O)CSc1nnc(-c2cccnc2)n1C	1.3
CCC(=O)N1CCCc2cc(S(=O)(=O)N3CCN(c4ncccn4)CC3)ccc21	2.7
